HCMV NEC inh = inhibitors of HCMV UL50-UL53 interaction, biochemical, HTRF; HCMV UL50-UL53 nuclear egress complex (human cytomegalovirus); normalized percent inhibition; inhibition, % (test concentration not listed); 190,000 compounds, 0.15% hits; AID 1918969, 2023;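 active means both replicates at 50% or more, plus weaker picks with an unusually low signal ratio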;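 further: stock transfer was 100 nL into about 20 µL; 0% = negative control wells and 100% = wells with untagged competitor protein; inactives centre near -12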
GIV-Gai inh = inhibitors of GIV peptide binding to Galpha-i3, primary screen, biochemical, fluorescence polarization, FITC-GIV GBA peptide, rat Galphai3; 90 min; hits give low values; scaled: aluminum fluoride 0%, vehicle 100%; percent of control (FP), % (concentration not given with the values); 210,000 compounds, 0.42% hits; Guanine nucleotide-binding protein G(i) subunit alpha-3 (Rattus norvegicus), P08753;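 active means replicate mean at 85% of control or lower, very high polarization wells dropped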;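 further: wells of about 15 µL received 100 nL stock; the first replicate is given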
Target sequence (P08753 whole entry, looked up): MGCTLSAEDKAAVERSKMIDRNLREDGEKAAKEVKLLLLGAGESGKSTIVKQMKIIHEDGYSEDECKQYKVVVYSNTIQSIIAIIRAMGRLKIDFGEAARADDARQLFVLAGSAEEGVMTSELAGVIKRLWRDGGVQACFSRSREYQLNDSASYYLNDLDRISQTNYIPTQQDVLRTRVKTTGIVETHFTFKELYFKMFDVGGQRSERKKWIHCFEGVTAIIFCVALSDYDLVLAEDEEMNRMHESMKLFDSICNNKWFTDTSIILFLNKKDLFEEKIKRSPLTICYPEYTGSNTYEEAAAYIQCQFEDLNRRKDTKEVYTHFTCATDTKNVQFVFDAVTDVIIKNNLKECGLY
Sa growth 42C = S. aureus growth inhibition at 42 and 30 °C, primary screen, LtaS inhibitor project, RN4220, two temperatures | OD600, 20 h, 42 °C; hits give low values | relative growth, % (concentration not given with the values) | 170,000 compounds, 0.53% hits | AID 720641, 2013;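 active means growth at 42 °C up to 50% and 20 or more points under that at 30 °C, or under 10% at both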;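 further: 300 nL library stock went into each well; scaled to the means of positive and negative controls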
Sa growth 42C second temp = second read-out of Sa growth 42C, no call of its own (marks repeat the call); relative growth, %; measured here: growth at 30 °C;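 optical density after 20 h as mean of two plates; 100% = untreated growth and lower means inhibition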
* marks the source's active call; other numbers are inactive results; . = not tested or not shown; & = joins results of further samples.

SMILES	HCMV NEC inh	GIV-Gai inh	Sa growth 42C	Sa growth 42C second temp
O=S(=O)(Nc1cccnc1)c1ccc(C2CCCCC2)cc1	-13	96	91	77
O=c1c2c([nH]c3ccccc13)CCCCC2	-18	100	95	89
CN(c1ccccc1)S(=O)(=O)c1ccc(C(=O)Nc2nnc(C(F)(F)F)o2)cc1	2	110	3.2*	2.0*
C/C(=N/O)c1ccc(Br)cc1	1	.	100	90
CC(=O)N1CC(C)Oc2ccc(S(=O)(=O)Nc3ccc(OC(F)(F)F)cc3)cc21 (stereo unspecified)	-8	99	99	79
COc1ccc(CCNC(=O)CCc2c(C)nc3c(c(C)nn3-c3ccc(C)c(C)c3)c2C)cc1OC	-14	101	110	89
O=C(Cn1cnc2onc(-c3ccc(Cl)cc3)c2c1=O)NC1CCCCC1	-18	98	.	.
CCOC(=O)N1CCC(N2C(=O)c3ccc(C(=O)NC4CCCCCC4)cc3C2=O)CC1	-26	105	95	86
CC(C)(C)N(Cc1ccccc1)C(=O)CSc1nnc(CNc2ccc(F)cc2)o1	-18	101	101	78
O=C1C2C3C=CC(C3)C2C(=O)N1CCN1CCCC1 (stereo unspecified)	17	100	107	117
CCOC(=O)c1noc2c1CCc1sccc1-2	-52	104	95	76
O=C(O)c1cc(-c2ccc(O)c(O)c2)nc2n[nH]c(-c3ccc(F)cc3)c12	-47&-58	106&100	99	74
O=C(C(NS(=O)(=O)c1cccs1)c1ccccc1)N1CCN(c2cccc(Cl)c2)CC1 (stereo unspecified)	.	107	105	80
CCN(CC)CC(O)COc1ccc2c(c1)OCO2 (stereo unspecified)	12	.	104	101
CCN(c1cccc(C)c1)C(CNS(=O)(=O)c1ccccc1)c1ccccc1 (stereo unspecified)	-22	101	82	71
CC(C)CCNC(=O)CCCCn1c(=O)c2ccccc2n(CC(=O)Nc2ccc(Cl)cc2F)c1=O	-24	104	.	.
C=C1C(C(=O)Nc2ccccc2N2CCOCC2)C1C(=O)Nc1ccccc1N1CCOCC1 (stereo unspecified)	-35	.	101	90
CCSc1n[nH]c(-c2c(Cl)c(CC)nn2C)n1	-18	.	107	80
O=C(NCCOc1ccc(Cl)cc1)c1ccco1	-20	.	86	88
Cc1ccc(S(=O)(=O)Nc2ccc3c(c2)COC3=O)c(C)c1	.	100	86	63
CN(CC(N)=O)S(=O)(=O)c1ccc(F)cc1	-8	103	103	101
O=C(/C=C/c1ccc(F)cc1)NC(=S)NN1CCOCC1	-13	105	110	118
CCOC(=O)c1ccc(NC(=O)COc2ccccc2F)cc1	-33	.	81	87
Cc1cccc(Oc2cc(NC(=O)c3sc4ccccc4c3Cl)cc([N+](=O)[O-])c2)c1	22	104	.	.
CCC(C)n1nccc1NC(=O)C(C)OC(=O)c1cc2ccccc2[nH]1 (stereo unspecified)	-29	.	105	97
Other results
SMILES	HCMV NEC inh	GIV-Gai inh	Sa growth 42C	Sa growth 42C second temp
O=C(O)c1cccnc1OCc1ccccc1	-11	100	118	83
CCCCn1c(NC(=O)c2ccccc2)c(C#N)c2nc3ccccc3nc21	73	.	26	21
CCOC(=O)c1c(NC(=O)C2=Cc3ccc(C)cc3OC=C2)sc2c1CCC(C)C2 (stereo unspecified)	-4	92	.	.
N#Cc1cc2c(=O)n3ccccc3nc2n(Cc2ccccc2)c1=O	.	114	99	85
O=C(Nc1ccccc1C(=O)N1CCCC1)Oc1ccccc1	-9	103	111	96
CSC1=NCCN1C(=O)c1ccc(C(F)(F)F)cc1	-21	102	94	91
CCOc1ccc(C(=O)N2CCC(c3nnc(-c4ccccc4OC)o3)CC2)cc1	-10	107	87	99
Cc1ccc(C(C)NC(=O)c2ccc3c(c2)OCO3)cc1C (stereo unspecified)	7	103	99	103
Cc1ccc(-n2c(C)cc(/C=C3\SC(=O)NC3=O)c2C)cc1	-10	99	90	119
O=c1c(-[n+]2ccccc2)cc2[nH]c3ccccc3c2n1-c1ccccc1	.	100	105	77
Cc1ccccc1S(=O)(=O)Nc1ccc(N2CCN(c3cccc(Cl)c3)CC2)c(C(=O)O)c1	-16	100	.	.
Cc1cc(N(CCO)Cc2ccccc2)n2nc(-c3ccc(C(C)(C)C)cc3)nc2n1	-28	106	106	86
COc1ccc(OC)c(NC(=O)CN2C(=O)CC(c3ccco3)Sc3ccccc32)c1 (stereo unspecified)	-16	105	114	73
COc1cc(CNCCSc2nnnn2C)ccc1OCc1c(F)cccc1Cl	-6	108	96	85
CN(CCN1C(=O)c2cc3sccc3n2CC1(C)C(=O)NC1CCCCC1)C1CCCCC1 (stereo unspecified)	11	95	.	.
COc1ccc(C(=O)N/C(=C\c2cn(S(=O)(=O)N(C)C)c3ccccc23)C(=O)NCc2ccco2)cc1	-16	105	100	66
CC1CCCC(C)N1C(=O)COC(=O)c1ccc(Br)cc1 (stereo unspecified)	-19	.	100	95
COc1ccc(C(=O)NCC(c2ccc(N(C)C)cc2)N2CCc3ccccc32)cc1 (stereo unspecified)	.	104	123	103
O=C(CSc1nc2[nH]c(=O)cc(O)c2s1)NCc1ccccc1	-19	114	114	99
CC(NC(=O)Cc1ccc(NC(=O)N2CCSc3ncccc32)cc1)c1ccccc1 (stereo unspecified)	.	105	115	91
O=C(Oc1cccc2cccnc12)c1cn(-c2ccccc2)nc1-c1ccccc1	.	103	61	67
CCN(c1ccccc1)S(=O)(=O)c1ccc2[nH]c(=O)c(=O)[nH]c2c1	-32	101	86	82
CCOc1cc(/C=C2\N=C(c3cc(F)c(F)cc3Cl)OC2=O)ccc1OC(C)=O	-29	99	.	.
Nc1ccc2c(c1)nc(CO)n2CCO	-17	.	106	86
Cc1ccccc1-c1nc2scc(CCNS(=O)(=O)CCc3ccccc3)n2n1	-28	106	.	.

Arranged by number of heavy atoms (lowest first): three of the compounds above
SMILES	HCMV NEC inh	GIV-Gai inh	Sa growth 42C	Sa growth 42C second temp
Nc1ccc2c(c1)nc(CO)n2CCO	-17	.	106	86
CSC1=NCCN1C(=O)c1ccc(C(F)(F)F)cc1	-21	102	94	91
COc1ccc(OC)c(NC(=O)CN2C(=O)CC(c3ccco3)Sc3ccccc32)c1 (stereo unspecified)	-16	105	114	73

(listing goes on)
SMILES	HCMV NEC inh	GIV-Gai inh	Sa growth 42C	Sa growth 42C second temp
O=C(O)C1CSC2(CCN(Cc3ccccc3)CC2)N1 (stereo unspecified)	-10	99	91	88
Cc1c(-c2nnc(C(=O)NCCC(C)C)o2)oc2ccccc12	-8	103	.	.
COc1ccc(-c2ccnc3[nH]n(-c4nc(C)cc(C)n4)c(=O)c23)cc1	-38	99	.	.
Cc1c(C(=O)Nc2ccc(-n3c(C)nc4ccccc4c3=O)cc2)cccc1[N+](=O)[O-]	.	93	123	90
Cn1nc(OC(C)(C)C(=O)Oc2ccc(Cl)cc2Cl)cc1C(F)(F)F	21	100	95	95
O=C1C=CC(=O)N1Cc1ccc(Cl)cc1	-17	.	66	33
COc1ccc(-c2nnc(SCC(=O)NC3CCCc4ccccc43)o2)cc1OC (stereo unspecified)	-31	.	104	94
N=C(N)N1CCOCC1	-26	103	90	87
CCN(CC)S(=O)(=O)c1cccc(C(=O)OCc2nc3ccccc3s2)c1	-8	.	105	82
COCc1c(C(N)=O)nnn1-c1nonc1N	4	103	99	101
CC1=C(C(=O)N2CCCCC2)C(c2ccccc2F)C2=C(CC(C)(C)CC2=O)N1 (stereo unspecified)	2	.	110	88
O=C(Nc1ncnc2sc3c(c12)CCCCC3)c1ccc(F)cc1	.	98	109	89
COc1ccc2c(c1)CCc1c(C(=O)N3CCCC3)noc1-2	-42	102&104	106	96
Cc1nc(C(F)(F)F)ccc1C(=O)N1CCN(c2nc3ccc(Cl)cc3s2)CC1	-22	108	91	91
CCN(CC)S(=O)(=O)c1ccc2c(c1)N(CC(=O)Nc1c(C)cc(C)cc1C)C(=O)CS2	-11	105	104	88
COC(=O)CC1Oc2ccc(F)cc2-n2cc(-c3ccc(C)cc3)nc21 (stereo unspecified)	13	102	86	86
COc1ccc(C2=NN(C(=O)c3ccc(Br)o3)C(c3ccc(C)cc3)C2)cc1OC (stereo unspecified)	-3	107	.	.
Cc1ccc(-c2nc3ccccc3n2CCNS(=O)(=O)c2ccc(C)c(C)c2)cc1	-32	104	.	.
CCOC(=O)Cc1csc(NC(=O)Nc2cccs2)n1	.	105	95	76
O=C1OC2(CCCCC2)OC(=O)C1=Cc1ccc(-c2ccc(C(=O)O)cc2)o1	-10	99	83	87
Cc1ccc(Cl)cc1N1CCN(C(=O)c2ccc3c(c2)N(Cc2ccccc2F)C(=O)c2ccccc2S3=O)CC1 (stereo unspecified)	-22	104	110	86
C=CCn1c(SCc2cc(=O)n3ccsc3n2)nnc1C1CCCCC1	-26	.	80	80
CCC(C)NC(=O)CSc1nc2n[nH]c(C)c2c(=N)n1-c1cc(Cl)ccc1C (stereo unspecified)	.	106	131	62
c1ccc(Cn2c(CN3CCCC3)nc3ccccc32)cc1	9	111	135	102
COc1cccc(OCCn2c(-c3ccc(Cl)cc3)nc3ccccc3c2=O)c1	-10	103	100	96

Part of the list above, limited to Sa growth 42C second temp and HCMV NEC inh.
structure,Sa growth 42C second temp,HCMV NEC inh
Cc1ccc(-c2nc3ccccc3n2CCNS(=O)(=O)c2ccc(C)c(C)c2)cc1,.,-32
CCOC(=O)Cc1csc(NC(=O)Nc2cccs2)n1,76,.
O=C1OC2(CCCCC2)OC(=O)C1=Cc1ccc(-c2ccc(C(=O)O)cc2)o1,87,-10
Cc1ccc(Cl)cc1N1CCN(C(=O)c2ccc3c(c2)N(Cc2ccccc2F)C(=O)c2ccccc2S3=O)CC1 (stereo unspecified),86,-22
C=CCn1c(SCc2cc(=O)n3ccsc3n2)nnc1C1CCCCC1,80,-26
CCC(C)NC(=O)CSc1nc2n[nH]c(C)c2c(=N)n1-c1cc(Cl)ccc1C (stereo unspecified),62,.
c1ccc(Cn2c(CN3CCCC3)nc3ccccc32)cc1,102,9

Reprinted at random: 5 records from the list.
SMILES	HCMV NEC inh	GIV-Gai inh	Sa growth 42C	Sa growth 42C second temp
COc1ccc(-c2ccnc3[nH]n(-c4nc(C)cc(C)n4)c(=O)c23)cc1	-38	99	.	.
N=C(N)N1CCOCC1	-26	103	90	87
COc1ccc(-c2nnc(SCC(=O)NC3CCCc4ccccc43)o2)cc1OC (stereo unspecified)	-31	.	104	94
COC(=O)CC1Oc2ccc(F)cc2-n2cc(-c3ccc(C)cc3)nc21 (stereo unspecified)	13	102	86	86
O=C(O)C1CSC2(CCN(Cc3ccccc3)CC2)N1 (stereo unspecified)	-10	99	91	88

(list continues)
SMILES	HCMV NEC inh	GIV-Gai inh	Sa growth 42C	Sa growth 42C second temp
O=C(Nc1ccc2c(c1)nc1n2CCN(Cc2ccccc2)C1)c1ccccc1	5	110	89	58
CCCOc1ccc(OCCSc2nc3ccccc3n2CCO)cc1	-8	109	.	.
Cc1cccc(C(=O)N(Cc2ccccc2F)C2CCS(=O)(=O)C2)c1 (stereo unspecified)	1	102	108	87
CCn1cc(C(=O)NCc2ccccc2)c(=O)c2cc(S(=O)(=O)N3CCCCCC3)ccc21	-27	98	103	82
C=C(C)Cn1c(N2CC(C)CC(C)C2)nc2c1c(=O)n(C)c(=O)n2C (stereo unspecified)	-6	103	104	88
CCOC(=O)c1csc(-c2snnc2C)n1	-9	106	105	74
O=C(O)CCCC(=O)Nc1nc(-c2ccc(F)cc2)cs1	-32	103	96	83
COc1ccc(OC)c(CNC(=O)CSc2nnc(C(=O)Nc3cccc(Cl)c3)s2)c1	4	99	.	.
O=C(N/N=C/c1nc2ccccc2[nH]1)c1ccccc1	-21	102	89	86
Cc1ccc(CCNC(=O)C2CCN(S(=O)(=O)N3CCOCC3)CC2)cc1	-27	100	103	94
Cn1c(CN(c2ccc(F)cc2)S(C)(=O)=O)nnc1SCc1nc2ccccc2c(=O)[nH]1	-2	115	.	.
O=C(Sc1ccc(Cl)cc1)c1ccco1	5	.	26	35
Cc1nc(SC(C)C(=O)NCc2ccc3c(c2)OCO3)c2cnn(-c3ccccc3)c2n1 (stereo unspecified)	3	.	81	89
CC(C)(C)Sc1ccccc1/C=N/O	5	105	121	102
CC(C)(C)Nc1ncnc2c1cnn2-c1ccccc1	-10	99&98	100	81
CC(C)c1cccc(C(C)C)c1NS(=O)(=O)c1cccs1	-6	109	119	96
O=C(NCCc1ccc(Cl)cc1)C1COc2ccccc2C1 (stereo unspecified)	.	99	109	89
CN(C)C(=O)c1cc2cccnc2n(Cc2ccccc2)c1=O	5	96	.	.
CN(C)/N=C(\Cn1nnc(N2CCCC2)n1)c1ccc(Cl)cc1	23	106	109	97
O=[n+]1cc(-c2ccccc2)n([O-])c2c1CCCC2	.	102	85	92
COc1ccccc1C1=NOC(C(=O)O)C1 (stereo unspecified)	4	.	93	93
Cc1ccc(C(=O)CSc2nc3ccccc3c(=O)n2Cc2ccco2)cc1	-22	100	88	93

Source: PubChem
